KSHV LANA nucl: LANA-nucleosome interaction inhibition; FITC-LANA1-23 / chicken nucleosome fluorescence polarization; stronger effect = lower value; z-score (no concentration beside the values); AID 720717; 51,000 compounds, 0.3% hits;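 active = both repeat wells score below -2 in polarization z-score versus plate sample wells, excluding overly bright wells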;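 also: 100 nL library stock added to about 30 µL; numbers are from one replicate; some results filed as inactive read as strong as hits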
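Material: Purified chicken nucleosomes with FITC-labelled LANA N-terminal peptide (1-23) | Reagent: 50 nM FITC-LANA1-23 probe | Medium: TEN-BT buffer, pH 7.5 | Times: 10–45 min incubation at room temperature | Detection: Fluorescence polarization | Replication: Duplicates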
BasE inh: BasE siderophore biosynthesis inhibition; purified BasE, fluorescence polarization binding displacement; inhibition, % (test concentration not listed); 84,000 compounds, 0.1% hits;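 active = both replicates above 25% with normal brightness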;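 also: 0% = negative plate control signal and 100% = positive plate control signal; stock transfer was 100 nL into about 30 µL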
Numbers without * were called inactive; / = not tested or not shown; & = joins results of further samples. An excerpt; rates above refer to the full screens.

SMILES | KSHV LANA nucl | BasE inh
Nc1nc2ccc(NC(=O)C3CCC(C(=O)O)CC3)cc2s1 (stereo not given) | 0.94 | 1.4
COC(=O)Cn1c(=O)c(C)nc2ccccc21 | 0.91 | 3.0
CN1C/C(=C/c2ccc3c(c2)OCCO3)C(=O)/C(=C/c2ccc3c(c2)OCCO3)C1 | / | -1.9
COc1cc(C(=O)OCc2nnc(-c3ccc(Cl)cc3)o2)cc(CN2C(=O)c3ccccc3C2=O)c1OC | / | 0.4
CCN1CCN(C(=O)c2cc(-c3ccccc3O)no2)CC1 | -1.3 | 0.1
CCC(C)NC(=O)c1ccc2cn[nH]c2c1 (stereo not given) | 0.25 | -0.3
CC(C)(C)NC(=O)NCC1CCCC1NC(=O)NC(C)(C)C (stereo not given) | -0.48 | 2.6
Cc1ccc(Cl)cc1NCN1C(=O)CNC1=S | -0.4 | 2.6
CCOC1Cc2ccccc2N(C(N)=O)c2ccccc21 (stereo not given) | 2.7 | -2.1
Cc1ccc(-n2ncc3c(N(C)C)ncnc32)cc1 | 0.85 | -1.6
O=C(O)COCC(=O)Nc1nnc(C2CC2)s1 | / | -0.4
O=C(N/N=C/c1ccncc1)C12CC3CC(CC(C3)C1)C2 | -1.2 | -1.2
COc1ccc(S(=O)(=O)N2CCCC(C(=O)N(Cc3cccs3)C3CC3)C2)cc1Cl (stereo not given) | 0.39 | 1.3
CCOC(=O)c1c(N)sn(-c2ccccc2)c1=S | / | 3.6
O=C(CCCc1nc2ccccc2s1)NC1=NCCS1 | / | -1.7
CCN(Cc1ccccc1)c1ccc(/C=N/O)cc1 | / | -3.5
O=S(=O)(NCc1csc(-c2cccs2)n1)c1ccc2c(c1)OCCCO2 | 0.3 | -2.5
CN(C)c1ccc(C(=O)NCCc2ccccc2)cc1 | / | -1.7
CC(C)N(Cc1ccc(N(C)C)cc1)S(=O)(=O)c1cccc(C(F)(F)F)c1 | / | -0.1
Cc1ccccc1C(OCC(O)CN1CCC(C(N)=O)CC1)c1ccccc1 (stereo not given) | / | -0.1
COc1ccc2[nH]cc(NC(=O)N3CCN(C)CC3)c(=O)c2c1 | -0.32 | -0.2
CC(NC(=O)C1CCCN(S(=O)(=O)c2ccc3c(c2)CC(C)N3C(=O)C2CC2)C1)c1ccccc1 (stereo not given) | -1 | 0.0
CCOC(=O)c1c(Nc2nc3ccccc3nc2N2CCN(C)CC2)sc2c1CCCC2 | / | 0.2
CCOC(=O)c1sc2nccc(N(C)C)c2c1N=CN(C)C | -0.45 | 1.4
CSc1nc2nc(C)c(Cc3cccc(F)c3)c(C)n2n1 | 0.018 | /
CC(C)(C)C(=O)NCC(=O)NC1=NCCS1 | / | 1.5
CC(=O)N/N=C/c1ccc(-c2cccc(C(=O)O)c2)o1 | -0.51 | 1.6
Cc1cc(OC(C)C(=O)Nc2sc3c(c2C(N)=O)CCCCCC3)ccc1Cl (stereo not given) | / | 1.7
CSc1nc(NCc2ccccc2)c(C#N)c(-c2ccccc2)n1 | -2.1 | -0.9
Nc1nnc(SCC(=O)N2c3ccccc3Sc3ccccc32)s1 | 0.09 | 0.3
COc1ccc(N2C(=O)CSC23C(=O)N2CCCc4cccc3c42)cc1 (stereo not given) | -1.3 | 0.4
COc1cc(S(=O)(=O)N2CCCCC2C)c(OC)cc1Cl (stereo not given) | -0.31 | 5.1
CCCn1c(=N)c(C(=O)NC)cc2c(=O)n3cc(C)ccc3nc21 | / | 1.5
Cc1ccc2c(c1)N(C(=O)CCC(=O)NCc1ccco1)CCO2 | 0.28 | 0.4
COC(=O)c1cccc(OC(N)=O)c1 | -0.3 | 7.5
CCC1CCCCN1C(=O)CCn1ccnc1 (stereo not given) | / | -1.1
O=C(NC1CCCCC1)/C(=C\c1ccco1)NC(=O)c1ccccc1 | -0.55 | -1.4
CS(=O)(=O)c1ccc(C(=O)OCc2cn3cc(Cl)ccc3n2)cc1 | / | -1.5
Cc1[nH]c2ccccc2c1/C=N/n1cnc2sc3c(c2c1=O)CCCC3 | / | 2.7
O=C(CSc1nc2ccccc2o1)Nc1ccc(S(=O)(=O)NC2CCCC2)cc1 | 0.26 | -1.6

A section of the results above:
SMILES | KSHV LANA nucl | BasE inh
CCOC(=O)c1c(Nc2nc3ccccc3nc2N2CCN(C)CC2)sc2c1CCCC2 | / | 0.2
CCOC(=O)c1sc2nccc(N(C)C)c2c1N=CN(C)C | -0.45 | 1.4
CSc1nc2nc(C)c(Cc3cccc(F)c3)c(C)n2n1 | 0.018 | /
CC(C)(C)C(=O)NCC(=O)NC1=NCCS1 | / | 1.5
CC(=O)N/N=C/c1ccc(-c2cccc(C(=O)O)c2)o1 | -0.51 | 1.6
Cc1cc(OC(C)C(=O)Nc2sc3c(c2C(N)=O)CCCCCC3)ccc1Cl (stereo not given) | / | 1.7
CSc1nc(NCc2ccccc2)c(C#N)c(-c2ccccc2)n1 | -2.1 | -0.9
Nc1nnc(SCC(=O)N2c3ccccc3Sc3ccccc32)s1 | 0.09 | 0.3
COc1ccc(N2C(=O)CSC23C(=O)N2CCCc4cccc3c42)cc1 (stereo not given) | -1.3 | 0.4
COc1cc(S(=O)(=O)N2CCCCC2C)c(OC)cc1Cl (stereo not given) | -0.31 | 5.1
CCCn1c(=N)c(C(=O)NC)cc2c(=O)n3cc(C)ccc3nc21 | / | 1.5
Cc1ccc2c(c1)N(C(=O)CCC(=O)NCc1ccco1)CCO2 | 0.28 | 0.4
COC(=O)c1cccc(OC(N)=O)c1 | -0.3 | 7.5
CCC1CCCCN1C(=O)CCn1ccnc1 (stereo not given) | / | -1.1
O=C(NC1CCCCC1)/C(=C\c1ccco1)NC(=O)c1ccccc1 | -0.55 | -1.4
CS(=O)(=O)c1ccc(C(=O)OCc2cn3cc(Cl)ccc3n2)cc1 | / | -1.5
Cc1[nH]c2ccccc2c1/C=N/n1cnc2sc3c(c2c1=O)CCCC3 | / | 2.7
O=C(CSc1nc2ccccc2o1)Nc1ccc(S(=O)(=O)NC2CCCC2)cc1 | 0.26 | -1.6

Other entries.
SMILES | KSHV LANA nucl | BasE inh
CC1=NNC(=O)C1CC(=O)N/N=C/c1ccncc1 (stereo not given) | -1 | 3.4
O=C(Cn1nnc(-c2ccccc2)n1)OCC(=O)c1ccccc1 | / | -3.0
COc1cccc(C(=O)NC(=S)Nn2cnnc2)c1OC | / | -2.3
CN1C(=O)c2ccc(C(=O)NC3CCCCC3)cc2C1=O | -0.82 | 1.1
Clc1ccc(-c2nn[nH]n2)cc1 | 0.18 | /
Clc1ccc(-c2nc(-c3ccccn3)no2)c(Cl)c1 | 0.43 | /
N#CC1=C(SCC(N)=O)NC(=O)CC1c1ccccc1 (stereo not given) | -0.57 | 2.9
S=C(NCCN1CCOCC1)NN(Cc1ccccc1)c1ccccc1 | / | 0.9
CCCCCC#CCC#CCC#CCC#CCCCC(=O)O | 0.0035 | 1.3
CC1CCCCN1C(=O)CSc1nc2cc3c(cc2c(=O)n1Cc1ccc2c(c1)OCO2)OCO3 (stereo not given) | -0.49 | 1.5
COc1nc(NCCN2CCOCC2)nc(Nc2ccc(I)cc2)n1 | -0.38 | 2.4
O=C(COc1ccccc1O)NCCO | -0.45 | 21
CCS(=O)(=O)N1CCC(C(=O)N2CCN(Cc3ccc4c(c3)OCO4)CC2)CC1 | 0.3 | 1.7
C=CCN1C(=O)c2ccc(C(=O)OCC(=O)Nc3ccccc3OC)cc2C1=O | / | 1.5
COCCNC(=O)Nc1ccc2c(c1)nc(C)n2C | -0.68 | 0.6
CN1CCN(CC(=O)N/N=C/c2ccc(F)c(F)c2)CC1 | -0.83 | -2.6
CNC(=O)NCc1c(N(C)C)cccc1N(C)C | / | 1.9
c1ccc2sc(CSC3=NCCN3)nc2c1 | / | -0.6
O=C(CNc1ccc(Br)cc1)N/N=C/c1ccco1 | 0.016 | -0.2
COC(=O)c1cn(-c2ccccc2)nc1-c1cccnc1 | / | 2.4
CC(C)(C)NC(=O)NC(=O)Cn1nnc(-c2ccccc2)n1 | / | 2.0
COC(=O)c1sccc1N1CC(C)(C)C1=O | -0.88 | /
Cc1ccc(C(=O)c2cnc3cc4c(cc3c2N2CCCC2)OCO4)cc1C | -0.018 | 0.7
CC(C)CCCC(C)[C@H]1CCC2C3CC=C4C[C@@H](O)CC[C@]4(C)C3CC[C@@]21C (stereo not given in full) | 0.29 | /
CNCC(=O)N(C)c1c(N)n(Cc2ccccc2)c(=O)[nH]c1=O | / | 0.0
CCOC(=O)c1c(O)cc(C)cc1Nc1ccccc1 | / | 1.1
O=C(OCc1nnc(-c2cc3c(s2)CCCC3)o1)c1cccc(CN2C(=O)c3ccccc3C2=O)c1 | / | -0.9
Cn1cnc2c(=O)oc3ccc(S(=O)(=O)NC4CCCC4)cc3c21 | -0.077 | 2.1
Cc1cc(N/C=C2/C(=O)c3sccc3N(Cc3cccc(F)c3)S2(=O)=O)no1 | / | -1.1
CCS(=O)(=O)N1CCN(C(=O)c2ccccc2Cl)CC1 | 0.41 | 1.9
CC12CN(C(=O)c3ccccc3)C3(C#N)CC1CCC23C (stereo not given) | -0.13 | 0.9
NC(=O)NCc1ccco1 | / | 0.3
CCOC(=O)c1c(C)[nH]c(C(=O)C(C)C)c1C | / | 0.0
CC1CC(CN)CC(CO)C1 (stereo not given) | 0.12 | -1.3
CCNCc1cccs1 | / | -1.6
O=C(O)CC(NC(=O)Nc1ccccc1)c1ccsc1 (stereo not given) | / | 1.3
COC(=O)c1ccc(S(=O)(=O)Nc2ccc(N3CCOCC3)cc2)n1C | / | -1.6
O=c1c2oc3ccccc3c2[nH]c(=S)n1CCc1ccccc1 | 0.92 | -2.0
CN1CCCC(n2nc(Cc3ccc(Cl)cc3)c3ccccc3c2=O)CC1 (stereo not given) | 0.3&-0.17&0.93 | -1.5
CN(C(=O)c1ccccc1)c1nc(-c2ccccc2)cs1 | 1.2 | -0.3
CCOC(=O)C1CCN(Cc2nc3ccccc3c(=O)n2-c2ccc(OCC)cc2)CC1 | -0.12 | 0.2
COc1cccc(-c2noc(C3CCCN(C(=O)Cc4ccccc4)C3)n2)c1 (stereo not given) | 0.62 | -0.4
COC(=O)c1c(C)[nH]c(C(=O)OCC(=O)Nc2ccccc2)c1C | / | 2.3
CN1C=CC(=C2C(=O)c3ccccc3C2=O)C=C1 | / | -2.6
O=C(NC(=O)c1ccc(F)c(Cl)c1)Nc1nnc(C(F)(F)F)s1 | / | -2.0
CC(C)(C)N(Cc1ccccc1)C(=O)C1COc2ccccc2O1 (stereo not given) | 0.54 | 1.2
Cc1ccc(NC(=O)CC2S/C(=N/N=C/c3cccs3)NC2=O)cc1 (stereo not given) | -0.032 | 5.9
CC(C)c1nnc(NC(=O)C(C(C)C)N2C(=O)c3ccccc3C2=O)s1 (stereo not given) | -0.9 | 2.2
CCc1ccc(NC(=O)N2CCOc3ccccc32)cc1 | -0.19 | 1.0
Cc1cc(=O)[nH]c(SCc2cccc3cccnc23)n1 | / | -0.8
CC(C)c1nc(-c2c(N)n(C)c(=O)n(C)c2=O)sc1C(=O)C(C)(C)C | / | 1.1
O=C(c1cnc(-c2ccccc2)nc1-c1ccccc1)N1CCOCC1 | 2 | /
N#CCc1cccc(N)c1 | / | 0.6
CN(C)/C=C/C(=O)c1cc(-c2ccccc2)no1 | -1.1 | 2.9
CCCC1CCC(c2ccc(OC(=O)c3ccco3)cc2)CC1 (stereo not given) | / | 2.1
CCOC(=O)c1cnc2c(c(C)nn2C)c1NCc1ccco1 | 2.9 | -2.2
Cc1ccc(C(C)C)c(OCCCCn2ccnc2)c1 | -1.2 | 0.2
Cc1cccc(NS(=O)(=O)c2cccc(C(=O)OC(C)C(N)=O)c2)c1 (stereo not given) | / | 0.0
COc1ccc(C2(C(=O)NCC3CCCO3)CCOCC2)cc1 (stereo not given) | -0.62 | 1.0
c1csc(-c2noc(CCCN3CCNCC3)n2)c1 | / | -0.7
Continued.
SMILES | KSHV LANA nucl | BasE inh
CC(Sc1nnc(-c2ccccc2)o1)C(=O)N(C)c1ccccc1 (stereo not given) | / | 1.3
Nc1ncnc2c1ncn2CCNCCc1ccccc1 | -0.64 | 3.3
Nc1ncnc2c1ncn2[C@@H]1O[C@H](COP(=O)(O)O)[C@@H](O)[C@H]1O | 0.21 | 7.1
COCCNC(=O)Cc1nc2ccccc2n1CC(=O)NCc1ccc(Cl)cc1 | / | -0.4
COc1cccc(C(=O)COC(=O)c2cncc(Br)c2)c1 | 0.43 | -2.4
O=S(=O)(c1ccc(F)cc1)N1CCCCC1 | 0.13 | 1.7
CSc1nc2ccc(NC(=O)CCc3ccco3)cc2s1 | / | 0.3
COc1ccc(N=Cc2c(O)[nH]c3ccccc23)cc1 | 0.34 | 0.2
Cn1nc(C(=O)OCc2cc(Cl)c3c(c2)OCO3)c2ccccc2c1=O | / | 1.2
Cc1cc(NCc2ccccc2)nc(-c2ccccc2O)n1 | -0.32 | 1.6
O=C(Nc1ccccc1)N1CCCC1c1cccs1 (stereo not given) | / | 1.5
O=C(CSC1=NCCS1)N1CCCCCC1 | / | -0.3
CN(C(=O)Cn1nnc2ccccc2c1=O)C1CCCc2ccccc21 (stereo not given) | / | 0.3
N#Cc1c(SCC(N)=O)nsc1SCC(N)=O | -0.42 | 0.6
COC(=O)c1ccccc1C(=O)N1CCOCCOCCOCC1 | 0.66 | 1.1
Cc1ccc(S(=O)(=O)c2[nH]c(=S)sc2N2CCOCC2)cc1 | 0.3 | -0.4
Cc1onc(-c2ccccc2Cl)c1C(=O)OCC(F)(F)F | / | 0.1
Cc1cc(C)nc(/N=C2\NC(=O)CC3C(=O)NCCN23)n1 (stereo not given) | 0.32 | -2.7
Cc1ccc(-c2cc(C(=O)N(C)C3CCCCC3)[nH]n2)cc1C | / | 2.1
CCC1Oc2ccc(C)cc2N(CC(=O)NC2CCCCCCC2)C1=O (stereo not given) | -0.62 | 3.0

Screening results deposited in PubChem by ICCB-Longwood Screening Facility, Harvard Medical School.
